MARV entry inh: inhibitors of Marburg virus binding or entry into cells. 18,000 compounds, 6.5% hits. Marburg virus pseudotype entry/binding inhibition, cell-based; control for the full effect not named in the record; many of its hits are not listed in these tables. Potency, µM (top dose mostly 49.2 µM), inactives show at the highest dose activity change, negative = inhibition, usual class: inhibitors; active means well fitted inhibition curve with a large enough effect; inconclusive means small, poorly fitted or top-dose-only effect; inactive means no such curve, though single readings can be large or run the other way; tested in HEK293 cells; note: luciferase read-out
LASV entry inh: Lassa virus entry inhibition | Lassa virus pseudotyped entry inhibition, cell-based qHTS; control for the full effect not named in the record; many of its hits are not listed in these tables | Potency, µM (highest dose often 49.2 µM), inactives show at the highest dose activity change, negative = inhibition, hits mostly inhibitors | 18,000 compounds, 4.1% hits | AID 720533; active = well fitted inhibition curve with a large enough effect; inconclusive = small, poorly fitted or top-dose-only effect; inactive = no such curve, though single readings can be large or run the other way; tested in HEK293 cells; note: luciferase read-out
The depositor's hits bear a star; ? = inconclusive; nt = not tested or not shown; & = joins results of further samples; [ ] = dose if it differs, or a comment. % is set by controls: 0 for no effect and ±100 for the full control effect; potency is the fitted concentration of half-maximal effect. Outcome played no part in choosing rows; any-hit rate near 7.3%.

The line under a structure holds: LASV entry inh | MARV entry inh
- COc1ccc(-c2nc3cc(C)ccc3cc2CN(C(=O)c2ccco2)C2CC2)cc1OC
    -24% | -7%
- CC[C@@H]1C(c2ccc(F)cc2)=NN(c2ccc(Br)cc2)[C@H]1C(=O)N1CCOC1=O
    -9% | -29%
- O=c1cc(O)cc(/C=C/c2ccc(O)c(O)c2)o1
    -2% | ?
- CCOC(=O)C1CCCN(C(=O)c2cnn(-c3nccc(-c4cc(C)sc4C)n3)c2C)C1 (stereo unspecified)
    1% | 68%[activator]
- Cn1ccc2c(C=Cc3ccc(F)cc3)cc3c(c21)C1CCC3C1 (stereo unspecified)
    -4% | -21%
- CCCCNC(=O)NS(=O)(=O)c1ccc(C(=O)O)cc1
    5% | -4%
- CC(C)c1ccc(-c2cc(-c3cn[nH]c3-c3ccccn3)ccn2)cc1
    16% | -3%
- CCCCCCCc1cc2ccccc2c2c(C(=O)OC)c(C)c(C(=O)OC)n12
    13%[8.59 µM] | 38%[activator][8.59 µM]
- ClCC1CO1 (stereo unspecified)
    -11% | 6%
- CNc1cc2c(Nc3cccc(Br)c3)ncnc2cn1
    -26% | -12%
- c1cc(-c2cnn3nc(N4CCOCC4)ccc23)nc(NC2CC2)n1
    nt | ?
- CCCCCCCCCC(=O)O[C@H]1CC[C@H]2[C@@H]3CCC4=CC(=O)CC[C@]4(C)[C@H]3CC[C@]12C
    -9% | 19%
- COc1ccc(CNCC(O)COc2ccc3[nH]c(=O)ccc3c2)cc1OC (stereo unspecified)
    13% | 11%
- CCOC(=O)NCCOc1ccc(Oc2ccccc2)cc1
    -25% | 10%
- N[C@H](C(=O)O)[C@@H](O)c1ccc(O)c(O)c1
    ? | 1.3µM*
- COc1ccc(-c2c(C)cc3oc(=O)cc(-c4ccccc4)c3c2C)cc1OC
    ? | ?
- CN1C(=O)CCS(=O)(=O)C1c1ccc(Cl)cc1 (stereo unspecified)
    -11%&-12%&-6% | 4%&24%&2%
- COC(=O)c1sccc1S(=O)(=O)N1CCC(n2c(CC3CCCC3)nc3cccnc32)CC1
    -6% | 22%
- COC(=O)CC1C2(C)CC34OC5(C)O[C@@]6(C7/C(=C(/O)C(C)C)C(=O)OC(c8ccoc8)[C@]7(C)C(OC(C)=O)C(OC(C)=O)[C@]6(O5)[C@@]13C)C(OC(C)=O)[C@]4(O)C2OC(=O)C(C)C (stereo partly specified)
    -2% | ?
- CO[C@@]1(NC(=O)C(C(=O)O)c2ccc(O)cc2)C(=O)N2C(C(=O)O)=C(CSc3nnnn3C)CO[C@@H]21 (stereo partly specified)
    5%[17.8 µM] | 15%[17.8 µM]
- CN(CC1COCCO1)C(=O)c1cnn(-c2nccc(-c3ccccc3C(F)(F)F)n2)c1C1CC1 (stereo unspecified)
    12% | 16%
- C=C1CCC2C(C)(CO)C(O)CCC2(C)C1C/C=C1\C(=O)OCC1O (stereo unspecified)
    ? | 11µM*
- O=C(O)c1cc2ccccc2[nH]1
    0% | 3%
- CC(C)c1c(C(=O)NCC(C)(C)N2CCOCC2)cnn1-c1nccc(-c2ccccc2F)n1
    15% | -11%
- O=C1CS(=O)(=O)N(Cc2cccc(F)c2)c2ccc(Br)cc21
    17% | 20%
- CO[C@H]1C[C@H](O[C@H]2[C@H](C)O[C@@H](O[C@@H]3/C(C)=C/C[C@@H]4C[C@@H](C[C@]5(C=C[C@H](C)[C@@H](C6CCCCC6)O5)O4)OC(=O)[C@@H]4C=C(C)[C@@H](O)[C@H]5OC/C(=C\C=C\[C@@H]3C)[C@]54O)C[C@@H]2OC)O[C@@H](C)[C@@H]1O
    10µM* | 8.9µM*
- C=C(CCC12O[C@H](C(=O)O)[C@@](O)(C(=O)O)[C@](C(=O)O)(O1)[C@H](OC(=O)/C=C/[C@@H](C)C[C@@H](C)CC)[C@H]2O)[C@@H](OC(C)=O)[C@H](C)Cc1ccccc1
    16% | 35%[activator]
- CCN1C(=NCCc2cccs2)N[C@@H](CCc2ccccc2)[C@H](C(=O)NCCc2cccs2)[C@H]1C
    -24%[8.59 µM] | 38%[activator][8.59 µM]
- C=CCN(C1=NCCN1)c1c(Cl)cccc1Cl
    -7%&-13% | ?
- C[C@@]12CC(=O)[C@H]3[C@@H](CCC4=CC(=O)CC[C@]43C)[C@H]1CCC2=O
    2%[17.8 µM] | ?
- O=C(OCc1cn([C@@H]2C[C@H](c3ccccc3)N(CC3CCCCC3)C[C@@H]2O)nn1)c1ccccc1
    -21% | -29%
- CCOC(=O)C(=Cc1ccccc1)C(=O)OCC
    ? | ?
- O=c1n(Cl)c(=O)n(Cl)c(=O)n1Cl
    4% | 10%
- CCCCCCCCCCCCCCCCOC[C@@H](O)COP(=O)([O-])OCC[N+](C)(C)C
    2%&2% | 23%&9%
- CCCN(CCC)[C@@H]1CCc2cccc(O)c2C1
    -2%&-5% | -29%
- COC(=O)N[C@@H](c1cccc(C)c1)[C@@H](C)[N+](=O)[O-]
    -11% | 4%
- CN(N=O)C(=O)N[C@@H]1[C@@H](O)[C@H](O)[C@@H](CO)O[C@@H]1O
    -6%[17.8 µM] | -9%[17.8 µM]
- C=C[C@H]1CN2CC[C@H]1C[C@H]2c1[nH]c2ccccc2c1CCO
    1% | -31%
- CC1CN(Cc2cccn2-c2cccnc2)Cc2cc(Cl)ccc2O1 (stereo unspecified)
    -16% | ?
- CC(C)(C)C(O)C(Oc1ccc(-c2ccccc2)cc1)n1cncn1 (stereo unspecified)
    -28% | 7%
- O=C(Nc1cccs1)OCCN1CCN(Cc2ccccc2)CCC1=O
    7% | 11%
- COCc1c(C(=O)N2CCC(c3ccccc3)CC2)cnn1-c1nccc(-c2cc(C)sc2C)n1
    ? | ?
- CC(=O)OC1CCC2(C)C3=C(CCC2C1(C)C)[C@@]1(C)CCC(C(C)CCC=C(C)C)[C@@]1(C)CC3 (stereo partly specified)
    -8% | -14%
- CCC1(C2CCN(Cc3ccc(OC)cc3)CC2)NC(=O)N(CC2COc3ccccc3O2)C1=O (stereo unspecified)
    1% | 7%
- CC1=C(O)C(=O)[C@@H]2O[C@@H]2C1=O
    2% | 8%
- COCc1c(C(=O)N2CCN(c3ccccc3O)CC2)cnn1-c1nccc(-c2cccs2)n1
    ? | 11%
- CC(C)C(NS(C)(=O)=O)c1nnc2n1CCN(Cc1ccnc3ccccc13)CC2 (stereo unspecified)
    -5% | 0%
- Cc1cc(-c2ccco2)cc(C)c1C=Cc1cncc(-c2nn[nH]n2)c1
    -12% | ?
- O=C(CCn1c(=O)[nH]c2ccccc21)NCC1Cc2cc(Cl)cc(-c3ccncc3)c2O1 (stereo unspecified)
    2% | -13%
- CCc1cc2c(nc1CC)CCN(CCC(C)=NOC[C@@H](C)[C@H](OCc1ccccc1)C(C)C)C2
    -5%[8.59 µM] | -17%[8.59 µM]
- C[C@H](N)Cc1c[nH]c2ccc(O)cc12
    -6% | 3%
- Cc1ccc2nc(SCC(=O)NCC3Cc4cccc(-c5nc(C)cnc5C)c4O3)[nH]c2c1 (stereo unspecified)
    3% | -1%
- CC1(O)CC2C(CC1O)C2(C)C (stereo unspecified)
    7% | 6%
- CCCCc1nc2c(c3c1C[C@H](C)OC3)CN(C(=O)Cc1cccc(OC)c1)CC2
    -15%[8.59 µM] | 2%[8.59 µM]
- COc1ccc2cc(CNCc3ccccc3C(F)(F)F)c(N3CCCC(CO)C3)nc2c1 (stereo unspecified)
    -25% | 1%
- Oc1ccc2c3c1O[C@H]1c4[nH]c5c(c4C[C@@]4(O)[C@@H](C2)N(CC2CC2)CC[C@]314)C[C@@]1(O)[C@H]2Cc3ccc(O)c4c3[C@@]1(CCN2CC1CC1)[C@H]5O4
    8% | -19%
- CCC[C@H]1CN(c2ccc(Br)cc2)C(=O)[C@H]1CC(=O)NC
    14% | 25%
- COC(=O)C1=C(C)N(Cc2ccccc2)C(=NCc2ccc3c(c2)OCO3)NC1CCc1ccccc1 (stereo unspecified)
    nt | -12%[8.59 µM]
- COCCNc1nc(-c2ccc(N(C)C)cc2)nc2ccccc12
    4% | ?
- CC(C)(C)OC(=O)N1CCCC(C(=O)Nc2ccc(C(=O)NCc3ccccc3)cc2)C1 (stereo unspecified)
    nt | -13%

One compound at a time, as listed above. Order of screens: LASV entry inh, MARV entry inh
CCC[C@H]1CN(c2ccc(Br)cc2)C(=O)[C@H]1CC(=O)NC is listed as 14%, 25%
COCc1c(C(=O)N2CCC(c3ccccc3)CC2)cnn1-c1nccc(-c2cc(C)sc2C)n1 is listed as ?, ?
O=c1n(Cl)c(=O)n(Cl)c(=O)n1Cl is listed as 4%, 10%
CCCCCCCCCCCCCCCCOC[C@@H](O)COP(=O)([O-])OCC[N+](C)(C)C is listed as 2%&2%, 23%&9%
Cc1ccc2nc(SCC(=O)NCC3Cc4cccc(-c5nc(C)cnc5C)c4O3)[nH]c2c1 (stereo unspecified) is listed as 3%, -1%

Back to the main list with the 4 entries that preceded the break.
The line under a structure holds: LASV entry inh | MARV entry inh
- CCC[C@H]1CN(c2ccc(Br)cc2)C(=O)[C@H]1CC(=O)NC
    14% | 25%
- COC(=O)C1=C(C)N(Cc2ccccc2)C(=NCc2ccc3c(c2)OCO3)NC1CCc1ccccc1 (stereo unspecified)
    nt | -12%[8.59 µM]
- COCCNc1nc(-c2ccc(N(C)C)cc2)nc2ccccc12
    4% | ?
- CC(C)(C)OC(=O)N1CCCC(C(=O)Nc2ccc(C(=O)NCc3ccccc3)cc2)C1 (stereo unspecified)
    nt | -13%
- COCCN(CCOC)Cc1cc(=O)oc2cc(OC)ccc12
    35% | 27%
- Cc1cc2oc(=O)cc(-c3ccccc3)c2c(C)c1-c1sccc1C=O
    8% | 4%
- Cc1ccc([C@H]2C[C@@H](O)[C@H](n3cc(COC(=O)c4ccccc4)nn3)CN2Cc2cccs2)cc1
    -9% | ?
- COc1ccccc1-c1cncnc1NCc1cccnc1
    1% | 7%
- CCOC(=O)CCCCCCCCCCCCC1C=CCC1 (stereo unspecified)
    -5% | -8%
- CC1(C)C=CC(=O)[C@]2(C)C1CC(=O)[C@]1(C)C2CC[C@@]2(C)C(c3ccoc3)OC(=O)C3OC321 (stereo partly specified)
    3% | 7%
- CCCCCCCCCCOc1cc2c(=O)c(C(=O)OCC)c[nH]c2cc1OCC
    -1% | 11%
- O=C(NC1CCN(Cc2ccccc2)C1)c1cnn(-c2ncc3c(n2)-c2ccccc2CC3)c1C1CC1 (stereo unspecified)
    -15% | 5µM*
- COc1cc(N)c(Cl)cc1C(=O)OCCCN1CCCCC1
    0%&-4% | 2%&-8%
- COc1ccc(CNc2ncncc2-c2ccc3c(c2)OCO3)c(OC)c1
    -2% | -3%
- COc1ccc(O[C@H]2C=C[C@@H](c3ccccc3)O[C@H]2CON=C[C@@H](C)[C@H](OCc2ccccc2)C(C)C)cc1
    -26%[8.59 µM] | ?
- COC(=O)[C@@H]1CCCN1Cc1ccc2c(c1)CN(Cc1cc(OC)c3c(c1)OCO3)CCO2
    -7% | -7%
- CN(C(=O)Cc1ccc(Cl)c(Cl)c1)C(CN1CCCC1)c1cccc(N=C=S)c1 (stereo unspecified)
    ? | ?
- Cc1ccc(CNc2nc(CN3CCNC(=O)C3)nc3ccccc23)o1
    -10% | -1%
- Cc1ccc([C@H]2C[C@H](n3cc(COC(=O)c4ccccc4)nn3)[C@@H](O)CN2CC2CCCCC2)cc1
    -18% | ?
- CC(=O)OCC(N)C(=O)c1ccccc1 (stereo unspecified)
    10% | 4%
- Cc1nc2cc(NC(=O)C3CC34CCN(Cc3ccc(O)c(Cl)c3)CC4)ccc2s1 (stereo unspecified)
    0% | ?
- COC(=O)C1=C(C)NC(C)=C(C(=O)OCC(C)=O)C1c1ccccc1[N+](=O)[O-] (stereo unspecified)
    ? | 13%
- CN(C)c1nc2cc3c(cc2cc1CN(CC1CCCO1)C(=O)c1cccc(F)c1)OCO3 (stereo unspecified)
    -14% | -24%
- C=CC[C@@H]1C=C[C@H](ON=C(C)CCN2CCc3nc(CC)c(CC)cc3C2)[C@H](CO)O1
    -29%[8.59 µM] | ?
- CCC(C)C(=O)c1c(O)c(C)c2oc3c(C)c(O)c(C(=O)C(C)CC)c(O)c3c2c1O (stereo unspecified)
    -24% | ?
- CCCCCC(=O)N1C[C@H](n2cc(COC(=O)c3ccccc3)nn2)[C@@H](O)C[C@H]1c1ccccc1
    -16% | ?
- COC(=O)N1C2CC3(C)CC(=O)CC1(C)C3c1ccccc12 (stereo unspecified)
    -1%[8.59 µM] | ?
- CC1(OC(=O)c2ccc(Cl)nc2)C(=O)C=C2C=C3CCCN3C=C2C1=O (stereo unspecified)
    13%[8.59 µM] | 2%[8.59 µM]
- COc1ccc([C@H]2C[C@@H](n3cc(COC(=O)c4ccccc4)nn3)[C@H](O)CN2C(=O)c2cccs2)cc1
    -24% | 23%
- CC(C)(C)OC(=O)C1=NOC2(C=CC(=O)C=C2)C1
    ? | ?
- CN1C(=O)CN=C(c2ccccc2)c2cc([N+](=O)[O-])ccc21
    -9% | 12%
- COc1ccc(-c2nc3cc(C)ccc3cc2CN(C(=O)c2cc(C)nn2C)C2CC2)cc1OC
    ? | 4%
- COc1ccccc1CN1CCC2(CCC(CNC(=O)c3ccccc3N(C)C)O2)CC1 (stereo unspecified)
    -12% | ?

Screening data as filed in PubChem.
